# eIF4H inh = human eIF4H binding inhibitors, primary screen, translation initiation inhibitor project, biochemical, uHTS, fluorescence polarization; Eukaryotic translation initiation factor 4H (Homo sapiens), Q15056; eIF4H fluorescence polarization binding assay; inhibition, % at 35 µM; 0.94% of 290,000 active; AID 2012, 2009;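 active = 50% or more with normal probe brightness, or confirmed in later tests; about a fifth of its hits are not listed in these tables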;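 also: calls also rest on retests at 20 µM and on dose response follow-up; 0% = protein and probe with vehicle and 100% = probe without protein; strong numbers were not always called active; many hits fall short of the cut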
# Rce1 inh = yeast Rce1p protease inhibitors, primary screen, biochemical, fluorescence, cell-free homogeneous | CAAX prenyl protease 2 (Saccharomyces cerevisiae (strain ATCC 204508 / S288c)), Q03530 | yeast membranes, quenched prenylated peptide cleavage fluorescence | calls only | 0.27% of 290,000 active | AID 2563, 2010;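 active = fall in fluorescence gain of 50% or more versus controls, with final raw signal at or below 3038400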;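 also: plate controls were neutral control wells for no effect and wells lacking membranes for full effect; tested at 10 µM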
# HIV Env fusion = inhibitors of HIV-1 Env-driven cell-cell fusion, primary screen, HeLa-JRFL effector, CEM21 target cells, luciferase; 1.1% of 360,000 active; inhibition, % at 12.3 µM;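 active = mean replicate inhibition score of at least 50 and every replicate individually at or above 50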;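 also: 0% = plate neutral controls and 100% = maraviroc near 300 nM; one replicate is shown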
# PABP polyA inh = PABP poly(A) RNA binding inhibitors, primary screen, biochemical, fluorescence polarization, uHTS; Polyadenylate-binding protein 1 (Homo sapiens), P11940; inhibition, % at 35 µM; 1% of 290,000 active; AID 2014, 2009;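 active = 50% or more with normal probe brightness, or confirmed in later tests; about a fifth of its hits are not listed in these tables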;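 also: calls also rest on retests at 20 µM and on dose response follow-up; controls were probe without protein and protein plus probe with vehicle; some compounds called inactive have numbers as strong as hits; many hits fall short of the cut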
# Target sequence (P11940 whole entry, looked up): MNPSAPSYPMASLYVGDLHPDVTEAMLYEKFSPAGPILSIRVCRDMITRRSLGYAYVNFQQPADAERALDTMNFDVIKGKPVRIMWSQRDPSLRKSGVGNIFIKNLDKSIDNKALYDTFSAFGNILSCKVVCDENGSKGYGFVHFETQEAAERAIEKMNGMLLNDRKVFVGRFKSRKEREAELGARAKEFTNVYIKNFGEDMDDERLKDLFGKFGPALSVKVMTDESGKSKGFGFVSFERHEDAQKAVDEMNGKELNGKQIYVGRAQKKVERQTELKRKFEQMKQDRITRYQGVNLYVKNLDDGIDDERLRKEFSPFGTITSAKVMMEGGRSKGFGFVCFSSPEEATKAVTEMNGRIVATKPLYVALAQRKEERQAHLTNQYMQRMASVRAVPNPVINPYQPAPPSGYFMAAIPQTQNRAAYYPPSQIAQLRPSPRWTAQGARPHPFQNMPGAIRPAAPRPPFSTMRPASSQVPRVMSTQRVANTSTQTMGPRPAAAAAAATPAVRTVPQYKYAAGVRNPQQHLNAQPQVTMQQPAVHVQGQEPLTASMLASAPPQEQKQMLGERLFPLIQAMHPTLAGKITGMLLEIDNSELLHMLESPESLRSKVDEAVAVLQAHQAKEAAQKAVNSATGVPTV
# MT1-MMP act inh = blockers of MT1-MMP proenzyme processing, primary screen, HT1080 RFP-PRO-GFP cells, GFP/RFP fluorescence; GFP/RFP ratio change, % at 20 µM; 0.061% of 360,000 active; Matrix metalloproteinase-14 (Homo sapiens), P50281; GFP/RFP ratio fluorescence, overnight; percent of plate control window, DMSO zero;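 active = GFP/RFP ratio change of at least 30% with cell ATP level not reduced by more than half and red fluorescence within 50% of control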; also: strong numbers were not always called active
#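 Read-out: GFP/RFP fluorescence ratio; Test system: RFP-PRO-GFP reporter HT1080 cells; Compound dosing: single-point 20 µM compound, 1% DMSO; Times: overnight compound exposure at 37 °C.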
# Yeast UUG start = modulators of yeast start codon fidelity, primary screen, whole organism, S. cerevisiae, single point, plate reader | S. cerevisiae UUG-firefly luciferase reporter, luminescence/redox ratio | activity score, % at 18.7 µM | 0.13% of 350,000 active | AID 602363, 2012;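 active = replicate mean at a twofold rise or more, about +100% in these data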;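 also: firefly luciferase made from a UUG start codon reports start codon fidelity; reporter light over untreated wells divided by growth signal over untreated wells; some hits fall short of that in this replicate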
# CSC inhib = cancer stem cell viability inhibitors, primary screen, luminescence; 1.1% of 300,000 active; cancer stem cell-like cells viability; inhibition, % at 7.5 µM; AID 2717, 2010;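 active = mean at 75% or more and at least half the replicates too; tested in HMLE shEcad cells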;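 also: 0% = median of negative and 100% = median of positive control wells; the first replicate is given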
# eIF4H inh retest = also measured in eIF4H inh; calls as there; inhibition, %; compound at 20 µM; confirmation average;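 mean of two retest wells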
# PABP polyA inh retest = also measured in PABP polyA inh; calls as there; inhibition, %; compound at 20 µM; confirmation repeats;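 mean of two retest wells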
# MT1-MMP act inh RFP = also measured in MT1-MMP act inh; calls as there; RFP signal change, %; measured here: RFP expression control read;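 0 = vehicle wells; hits needed this value within 50% of zero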
# Numbers without * were called inactive; i = inactive; . = not tested or not shown.
SMILES,eIF4H inh,Rce1 inh,HIV Env fusion,PABP polyA inh,MT1-MMP act inh,MT1-MMP act inh RFP,Yeast UUG start,CSC inhib,others
O=C(CSc1nnc(-c2ccc(F)cc2)o1)N1CCN(C(=O)c2ccco2)CC1,1.3,i,.,25.2,-3.3,1.5,.,4.1,
Cc1ccc(NC(=O)Nc2ccc3c(c2)C(=O)OC3)cc1Cl,-1.4,i,3.4,1.4,0.6,-2.1,-7.9,2.4,
O=C(CCN1C(=O)c2cccc3cccc(c23)C1=O)N1CCN(Cc2ccc3c(c2)OCO3)CC1,-7.6,i,-6.2,1.0,-2.6,-3.3,11.4,3.9,
Nc1ccc(C(=O)OCC(=O)N2CCOCC2)cc1[N+](=O)[O-],-1.4,i,-23.0,-18.1,2.4,3.5,.,-6.3,
Cc1cc(C(=O)CSc2nnc(Nc3ccccc3F)s2)c(C)n1CC1CCCO1 (centres undefined),5.2,i,49.5,1.3,15.6,-7.4,-8.4,.,
CCOc1ccc(NC(=O)C2CC(=O)N(CCc3ccccc3)C2)cc1OC (centres undefined),.,.,0.6,.,-4.3,-1.9,-15.8,.,
CCN(CC)c1ccc(C=Nc2ccccc2C)c(O)c1,11.5,i,-6.7,-0.2,10.3,17.8,-15.3,-11.4,
COc1ccc(-c2cc(-c3cc(C)ccc3O)[nH]n2)cc1,-4.5,i,-10.5,4.8,-13.5,-16.1,.,0.4,
Cc1cccc(NC(=S)NCC(c2cccnc2)N(C)C)c1C (centres undefined),-3.8,i,-12.6,-6.9,0.4,3.9,-15.6,-16.8,
Cc1nc2cc3ccccc3cc2n1C,-5.0,i,.,6.9,0.3,2.9,.,-5.3,
CCOC(=O)c1c(C)c(C(=O)NCCc2ccccc2)c(C)n1C,-5.1,i,-18.3,26.9,-0.5,-0.5,.,-10.1,
COc1ccc(-c2ccc(OC)c([C@H]3[C@H]4C=CC[C@@H](C)[C@@H]4C(=O)N3Cc3ccccc3)c2)cc1OC,-7.0,i,14.1,-1.3,-10.8,-13.3,-7.8,61.3,
CC(=O)Nc1ccc(NC(=O)Cn2ccc([N+](=O)[O-])n2)cc1,-3.1,i,-3.9,-4.9,-10.5,-9.1,.,-1.7,
COC(c1ccccc1)c1nnc(CCC(=O)N2CCN(Cc3cccs3)CC2)o1 (centres undefined),-5.5,i,-1.8,2.9,2.0,1.0,.,-6.2,
CCO[C@@H]1OC(C(=O)NC2CC2)=C[C@H](C2CCCCC2)[C@H]1CCCO,.,i,0.1,.,1.7,4.3,8.9,-17.9,
CC(OC(=O)CN(C)S(=O)(=O)c1ccc(Cl)cc1)C(=O)Nc1cccc(Cl)c1 (centres undefined),-5.3,i,19.9,0.3,1.3,1.3,10.6,-11.9,
CCC(CO)NCc1ccc(Br)cc1 (centres undefined),-16.8,i,-3.5,-7.6,-0.3,5.7,-45.0,.,
Cc1ccc(N2CCN(CCc3nc4cc(NC(=O)c5ccco5)ccc4n3C)CC2)cc1,-14.1,i,4.4,-9.2,3.0,-9.0,-15.5,-4.6,
COc1ccc(C(=O)NCC(=O)OCC(=O)NCc2cccs2)cc1,3.5,i,-4.3,9.5,-1.3,1.8,.,1.9,
Cn1cccc1C1C=C(c2ccc(C(C)(C)C)cc2)Nc2ncnn21 (centres undefined),.,i,-14.0,.,-7.1,-19.6,-17.9,12.3,
O=C(Cn1nc(CNc2ccc(Br)cc2)[n+]2c1CCCCC2)c1ccc([N+](=O)[O-])cc1,-14.0,i,20.4,4.9,-2.2,-9.2,24.5,10.4,
O=C(CN1C(=O)CCC1=O)Nc1nc(-c2ccc(Cl)s2)cs1,-8.5,i,.,1.5,1.5,0.5,.,6.1,
C[C@@H]1CN([C@H](C)CO)C(=O)CCCn2cc(nn2)CO[C@H]1CN(C)S(=O)(=O)c1ccc(-n2cccn2)cc1,.,.,20.5,.,-2.1,6.1,-10.4,.,
CCOC(=O)C1(CCOc2ccccc2)CCN(Cc2ccc(O)c(OCC)c2)CC1,1.0,i,4.7,-3.1,0.3,-3.6,-3.4,17.0,
Cc1cc(C)c(C#N)c(Nc2ccccc2F)n1,0.4,i,-5.8,11.7,1.9,1.1,-11.6,-9.2,
Cc1cc(C)cc(NC(=O)NN2C(C)CCCC2C)c1 (centres undefined),11.7,i,8.9,1.0,-4.7,-3.8,.,-8.1,
COCCNC(=O)COC(=O)/C=C/c1cnc2ccccc2n1,7.9,i,0.3,0.5,0.5,0.4,-18.0,-7.6,
CCOCCn1c(CN2CCN(c3ccccc3)CC2)nc2c1c(=O)n(C)c(=O)n2C,.,i,.,.,-2.4,-0.1,-4.7,19.2,
N#CCCC12CCCCC1=Nc1ccccc12 (centres undefined),-1.2,i,7.1,15.4,0.4,5.8,-6.0,-11.2,
CCCOC(=O)c1ccc(NC(=O)CC(C)(C)C)cc1,-1.1,i,-60.7,3.8,0.6,3.6,.,3.0,

# Molecules from the list above containing a thiophene ring, fused or not (3):
SMILES,eIF4H inh,Rce1 inh,HIV Env fusion,PABP polyA inh,MT1-MMP act inh,MT1-MMP act inh RFP,Yeast UUG start,CSC inhib,others
COC(c1ccccc1)c1nnc(CCC(=O)N2CCN(Cc3cccs3)CC2)o1 (centres undefined),-5.5,i,-1.8,2.9,2.0,1.0,.,-6.2,
COc1ccc(C(=O)NCC(=O)OCC(=O)NCc2cccs2)cc1,3.5,i,-4.3,9.5,-1.3,1.8,.,1.9,
O=C(CN1C(=O)CCC1=O)Nc1nc(-c2ccc(Cl)s2)cs1,-8.5,i,.,1.5,1.5,0.5,.,6.1,

# (cont.)
SMILES,eIF4H inh,Rce1 inh,HIV Env fusion,PABP polyA inh,MT1-MMP act inh,MT1-MMP act inh RFP,Yeast UUG start,CSC inhib,others
COC(=O)C1=C[C@@H](C(=O)OC)[C@@H]2C3=C(C(=O)[C@@]2(C)NC(=O)c2ccccc2)[C@H](C)C(C(=O)OC)=C(C(=O)OC)[C@@H]3C1,.,i,-10.1,.,-0.8,2.2,4.2,1.4,
Cc1cccc(NC(=O)CN2C(=O)N/C(=C/c3cc(C)n(C)c3C)C2=O)c1,13.6,.,10.2,0.1,-6.5,1.9,.,.,
CCN(CC)c1nc2ccccc2nc1C(C#N)C(=O)NCCc1ccccc1 (centres undefined),28.6*,i,-5.3,70.2,-175.5,0.5,0.6,37.9,eIF4H inh retest=66.1*;PABP polyA inh retest=33.2
COc1cccc(NC(=O)Nc2cc(C)ccc2F)c1,6.8,i,-18.9,-3.5,1.0,7.0,7.1,-7.8,
COc1cccc(/C=C2/C(=O)NN(c3ccc(F)cc3)C2=O)c1,8.9,i,1.7,4.1,-5.0,0.0,-24.2,0.4,
COCCNC(=S)N1CCN(Cc2ccc3c(c2)OCO3)CC1,5.4,i,25.8,3.9,0.5,2.3,-19.5,-11.5,
CC(=O)c1c(C)n(C)c2ccc(OC(=O)c3ccco3)cc12,-15.0,i,-8.8,-8.4,6.1,-1.0,-9.7,-8.2,
Fc1cccc(Cc2c(C3CCCCC3)nc3ccc(Br)cn23)c1,.,.,-4.4,.,-3.2,-4.1,-18.3,.,
O=C(c1sc2cccc(Cl)c2c1Cl)N1CCN(CCc2ccccn2)CC1,-5.0,i,4.7,0.8,3.2,3.0,5.5,1.3,
O=S(=O)(NCC1CCCO1)c1cccc(C(F)(F)F)c1 (centres undefined),-4.6,i,.,-11.6,-10.9,-10.1,-12.2,-10.8,

# Grouped by structure, those above with a tert-butyl group.
SMILES,eIF4H inh,Rce1 inh,HIV Env fusion,PABP polyA inh,MT1-MMP act inh,MT1-MMP act inh RFP,Yeast UUG start,CSC inhib,others
Cn1cccc1C1C=C(c2ccc(C(C)(C)C)cc2)Nc2ncnn21 (centres undefined),.,i,-14.0,.,-7.1,-19.6,-17.9,12.3,
CCCOC(=O)c1ccc(NC(=O)CC(C)(C)C)cc1,-1.1,i,-60.7,3.8,0.6,3.6,.,3.0,

# The results go on.
SMILES,eIF4H inh,Rce1 inh,HIV Env fusion,PABP polyA inh,MT1-MMP act inh,MT1-MMP act inh RFP,Yeast UUG start,CSC inhib,others
O=C(Cn1cnc2ccccc2c1=O)c1ccc(Br)cc1,-6.6,i,1.1,0.6,2.1,1.6,10.5,-7.6,
CCOc1cc(N2CCOCC2)c(OCC)cc1NC(=O)CSc1cccc[n+]1[O-],9.0,i,.,18.1,2.9,4.1,1.0,12.7,
CCn1c(SCC(=O)Nc2nc3ccc(C)cc3s2)nc2c(c1=O)SC(C)C2 (centres undefined),-6.3,i,.,10.1,-16.8,-33.6,2.0,15.7,
O=C(COC(=O)C1CCCC1)Nc1cccc(Cl)c1Cl,.,.,-6.9,.,0.5,6.0,-17.7,4.6,
O=C(COc1ccc(Br)cc1)N1CCN(S(=O)(=O)/C=C/c2ccccc2)CC1,-6.4,i,.,-12.6,-3.7,-17.4,.,.,
COc1cc(CNC(C)c2ccccc2)cc(Br)c1OCc1ccccc1 (centres undefined),1.1,i,41.1,-3.4,-3.9,-7.5,-12.6,111.7*,
CCOc1ccc(NC(=O)C(CC)NC(=O)c2ccccc2CO)cc1 (centres undefined),-8.0,i,.,-3.9,1.6,3.3,-5.6,-12.5,
Cn1ncc(Br)c1C(=O)Nc1ccc(Cl)cn1,-8.2,i,.,9.7,0.6,-0.9,-22.7,-11.5,
O=C(Nc1cc(C(F)(F)F)ccc1F)C1CCCC1,7.1,i,14.5,7.6,0.6,1.4,-2.2,-4.4,
C=CCn1c(=N)n(CC(O)c2ccco2)c2ccccc21 (centres undefined),44.8,i,.,31.2,-17.1,1.1,-13.2,3.9,
COC(=O)N/N=C/c1ccc(OC(=O)c2ccco2)c(OC)c1,-6.6,i,1.5,1.6,1.9,2.5,-36.0,-13.4,
O=C(Nc1ccc(Cl)cc1)c1cccc(OC(=S)N2CCOCC2)c1,-8.8,i,-202.5,-8.5,-2.1,-25.1,-18.5,-5.1,
CCCCOc1cccc(C(=O)N(Cc2ccccc2)C2CCS(=O)(=O)C2)c1 (centres undefined),-10.7,i,22.1,-12.5,0.0,-2.2,60.4,-14.5,
CCCn1nnnc1COc1ccc(C(N)=O)cc1,7.8,i,13.1,-3.4,-0.2,3.3,-7.3,-6.5,
Cc1nc2ccccc2c(=O)n1NC(=O)C1CC1,0.6,i,12.7,2.3,-1.4,-0.4,-13.0,-13.8,
COc1ccc(-n2nc(C(=O)NCc3ccco3)c3c4ccccc4n(C)c3c2=O)cc1Cl,9.5,i,-14.3,-4.1,1.4,0.4,-10.4,-1.2,
COc1ccc(Oc2nc(Oc3ccc(OC)cc3)nc(Oc3ccc(OC)cc3)n2)cc1,3.6,i,-142.1,1.7,-5.8,-2.4,-26.0,-2.0,
COc1ccc(OC)c(NC(=O)c2nnn(Cc3ccc(Br)cc3F)c2N)c1,-10.0,i,-191.5,-9.0,-1.6,-1.9,-16.5,34.8,
COc1ccc(CCC(=O)NC2CCCCC2)cc1,-7.6,i,.,10.1,-0.5,1.0,-9.3,-11.4,
CCOc1ccccc1C(=O)Nc1cccc(-c2nnc(-c3ccccc3)o2)c1,-4.2,i,6.3,-10.2,1.4,-2.3,-13.4,2.8,

# Source: PubChem
